MT1-MMP act inh = inhibitors of human MT1-MMP activation. HT1080 RFP-PRO-GFP cells, GFP/RFP ratio fluorescence, overnight; percent of plate control window, DMSO zero. GFP/RFP ratio change, % at 20 µM. hit rate 0.061% among 360,000. AID 651647;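 active means GFP/RFP ratio change of at least 30% with cell ATP level not reduced by more than half and red fluorescence within 50% of control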; further: strong numbers were not always called active
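Read-out: GFP/RFP fluorescence ratio; Test system: RFP-PRO-GFP reporter HT1080 cells; Compound dosing: single-point 20 µM compound, 1% DMSO; Times: overnight compound exposure at 37 °C.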
UUG fidelity = modulators of start codon recognition fidelity in yeast; S. cerevisiae UUG-firefly luciferase reporter, luminescence/redox ratio; activity score, % at 18.7 µM; hit rate 0.13% among 350,000;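 active means replicate mean at a twofold rise or more, about +100% in these data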;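 further: firefly luciferase made from a UUG start codon reports start codon fidelity; reporter light over untreated wells divided by growth signal over untreated wells; some hits fall short of that in this replicate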
MT1-MMP act inh RFP = recorded beside MT1-MMP act inh, whose call it bears; RFP signal change, %; measured here: RFP expression control read;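 0 = vehicle wells; hits needed this value within 50% of zero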
An asterisk follows results filed as active; & = joins results of further samples.

Molecule	UUG fidelity	MT1-MMP act inh RFP	MT1-MMP act inh
CN(C)C1CCCCC=CC(=O)NC1 (configuration not stated)	-34	8	-3
CC(Sc1nnc(N)s1)C(=O)c1c(N)n(C)c(=O)n(C)c1=O (configuration not stated)	-10	5	0
CN(c1cccc(F)c1)c1cc2c(c3c1ccn3C)C1CCC2C1 (configuration not stated)	-5	-1	3
Cc1cccc(C)c1NC(=O)CN(C)C(=O)CCC(=O)c1ccccc1	1	0	0
O=C(CN1C(=O)NC2(CCCc3ccccc32)C1=O)NCc1cccs1 (configuration not stated)	-20	3	0
CCOc1ccc(S(=O)(=O)N2CCCCC2)cc1NC(=O)c1ccccc1	-6	1	4
CC(C)Oc1cc(F)ccc1-c1cc(C(=O)Nc2ccccc2)[nH]n1	-18	-5	-5
Cc1cccnc1CNC(=O)C1(C)CCCN1CC(C)C (configuration not stated)	-10	1	1
O=C(N[C@H]1C/C=C\C[C@H](CC(=O)N(CCO)Cc2ccccc2)C(=O)NC[C@H](c2ccccc2)OC1=O)OCC1c2ccccc2-c2ccccc21	-9	-3	0
CCN1CCN(S(=O)(=O)c2ccc(Cl)c(C(=O)Oc3ccc(CC(=O)OC)cc3)c2)CC1	-8	3	3
COc1ccccc1N1CCN(C(=O)[C@H](C)NS(=O)(=O)c2ccc3c(c2)OCCCO3)CC1	1	0	0
CC1(c2ccccc2)NC(=O)N(CC(=O)Nc2ccc(S(=O)(=O)NC3=NCCCCC3)cc2)C1=O (configuration not stated)	-2	3	15
CCCNC(=O)C1(C)CCCN(Cc2ccc3c(c2)OCO3)C1 (configuration not stated)	-17	4	3
CC1(C)Cc2cccc(OCC(=O)NCCc3ccc(S(N)(=O)=O)cc3)c2O1	-15	0	-3
CC(C)N1CCC1(C)C(=O)Nc1cccc(C#N)c1 (configuration not stated)	-20	-2	0
Cc1ccc(S(=O)(=O)CCC(=O)NC2CCCCC2)cc1	-16	2	0
O=C(NNC(=O)c1cccc2ccccc12)c1ccc(Cl)cc1Cl	-10	-6	7
N#Cc1cccc(-c2csc(C(O)c3ccc(F)cc3)n2)c1 (configuration not stated)	2	-1	5
COc1ccc(Cl)cc1NC(=O)COC(=O)c1c(-c2ccccc2)noc1C	-15	-11	2
COc1ccc(CNC(=O)COc2cc3c(c4oc(=O)cc(C)c24)CCC(C)(C)O3)c(OC)c1	-15	-8	0
COc1cc(O)c2c(=O)c3c(O)c(O)ccc3oc2c1OC	-15	-13	9
CCOc1ccc(C(=O)OCC(=O)Nc2ccc3c(c2)OCCO3)cc1OC	-4	4	2
CCc1ccc(-c2csc(NC(=O)C3=COCCO3)n2)cc1	-2	-11	0
Cc1nnc(SC(C)C(=O)NCC2CCCO2)s1 (configuration not stated)	-16	5	4
C[C@@H]1Cn2cnc(C(=O)NCc3ccc(CNC(=O)OC(C)(C)C)cc3)c2C(=O)N1	-13	-9	4
CN(c1ccccc1)S(=O)(=O)c1ccc(C(=O)NNC(=O)c2ccccc2)cc1	5	-3	-1
CCCc1cc(=O)[nH]c(SCC(=O)Nc2ccc(Cl)c(S(=O)(=O)N3CCOCC3)c2)n1	-17	2	3
O=C(NCCOc1ccccc1)c1cccc(S(=O)(=O)N2CCN(Cc3ccccc3)CC2)c1	-8	-1	-1
O=C1CCCN1C(=O)CSc1nnnn1-c1ccccc1	-2	4	1
Cc1ccc(C)c(-n2nnc3ccccc3c2=O)c1	-13	2	-4

Ordered by the number under UUG fidelity (lowest first): three of the compounds above.
| SMILES | UUG fidelity |
| --- | --- |
| CCCNC(=O)C1(C)CCCN(Cc2ccc3c(c2)OCO3)C1 (configuration not stated) | -17 |
| CC1(C)Cc2cccc(OCC(=O)NCCc3ccc(S(N)(=O)=O)cc3)c2O1 | -15 |
| Cc1cccnc1CNC(=O)C1(C)CCCN1CC(C)C (configuration not stated) | -10 |

The list goes on.
Molecule	UUG fidelity	MT1-MMP act inh RFP	MT1-MMP act inh
O=C(CCN1C(=O)C2CC=CCC2C1=O)Nc1ccc(S(=O)(=O)N2CCCCC2)cc1 (configuration not stated)	18	-2	-2
CCCC(NC(=O)CCc1c(C)c2cc3c(C)c(C)oc3cc2oc1=O)C(=O)NC(Cc1ccc(Cl)cc1)C(=O)O (configuration not stated)	0	2	4
CC1=C(C(=O)N(C(C)C)C(C)C)CC(CC(=O)NCCN2CCOCC2)C(=O)N1CCCN1CCCC1=O (configuration not stated)	-7	4	-1
CCNC(=O)C1(C)CCN(Cc2ccc(C(F)(F)F)cc2)C1 (configuration not stated)	-16	-1	-2
O=C(Nc1cccc(S(=O)(=O)Nc2ccc(Cl)cc2)c1)c1ccccn1	2	-18	11
CC1=C(C(=O)N(C(C)C)C(C)C)CC(CC(=O)NCc2ccco2)C(=O)N1Cc1ccccc1 (configuration not stated)	19	-2	0
CCc1ccc(Nc2nnc(SCC(=O)NC(=O)CN3CCCC3=O)s2)cc1	-5	-1	-3
O=C(/C=C/[C@H]1O[C@@H](n2ccc(=O)[nH]c2=O)[C@H](O)[C@@H]1O)NCCc1c[nH]c2ccccc12	-16	0	-2
NC(=O)c1csc(CCNC(=O)c2ccccc2)n1	-13	-2	0
O=C(NCCS(=O)(=O)N1CCN(c2ccccc2)CC1)C1CCCCC1	-32	0	1
CS(=O)(=O)Nc1ccccc1C(=O)OCC(=O)NC1CC1	5	4	3
O=C(COc1cc(F)ccc1[N+](=O)[O-])Nc1cc(S(=O)(=O)N2CCCC2)ccc1Cl	10	0	4
CSCCC1NC(=O)C(C(C)=Nc2ccccc2)=C1O (configuration not stated)	-7	2	2
CCOC(=O)[C@@H](NC(=O)/C=C/[C@H]1O[C@@H](n2cc(C)c(=O)[nH]c2=O)C[C@@H]1O)C(C)C	-8	1	1
CCCC(=O)N1CCC1(C)C(=O)Nc1ccc(-n2cccc2)cc1 (configuration not stated)	1	2	3
Cc1ccc([C@H]2C[C@H](n3cc(-c4ccc(F)cc4)nn3)[C@@H](O)CN2CC2CCCCC2)cc1	3	-3	-3
CC1CCCC(C)N1C(=O)COC(=O)c1cccc(S(=O)(=O)N(C)c2ccccc2)c1 (configuration not stated)	10	-9	1
COc1cc(NC(=O)c2[nH]cnc2C(N)=O)cc(C(=O)Nc2cccc(C(F)(F)F)c2)c1	-21	2	10
Cc1ccc(-c2csc3ncnc(N4CCN(C(=O)c5ccco5)CC4)c23)cc1	-5	-3	-9
CCOC(=O)Nc1ccc2c3c(cccc13)-c1ccccc1-2	-13	-8	-17
COc1ccc(OC)c(/C=C/C(=O)OCC(=O)NC2CCCCCCC2)c1	-17	1	-3
C[C@@H]1CN([C@H](C)CO)C(=O)CCCn2nncc2CO[C@H]1CN(C)S(=O)(=O)c1ccc(Cl)cc1	3&7	6	9
CN(C)S(=O)(=O)c1ccc(C(=O)N2CCN(S(=O)(=O)c3ccc4c(c3)OCCO4)CC2)cc1	-7	6	8
COCCN(C(=O)COC(=O)CSc1cc(C)ccc1C)c1c(N)n(Cc2ccccc2)c(=O)[nH]c1=O	-13	4	1
O=C(CNC(=O)c1ccccc1F)NCCc1ccccc1F	-32	0	1
O=C(C1CCN(S(=O)(=O)c2ccccc2F)CC1)N1CCN(Cc2ccc3c(c2)OCO3)CC1	-16	-9	3
O=S(=O)(NCC1CCCO1)c1ccc(Cl)c2ccccc12 (configuration not stated)	12	-4	-1
CCOC(=O)c1sc(NC(=O)C2CC(=O)N(c3ccccc3OC)C2)nc1C (configuration not stated)	-4	0	-2
O=C(/C=C/c1ccccc1Cl)OCC(=O)c1ccc[nH]1	-4	0	-2
Nc1ccc2cc3ccccc3cc2c1	-9	8	-71

Next section.
Molecule	UUG fidelity	MT1-MMP act inh RFP	MT1-MMP act inh
COc1ccc(C(=O)CSc2nc(=O)n(Cc3cccnc3)c3c2CCC3)cc1	-16	1	-3
O=C(CSc1nnnn1-c1ccccc1)NC(=O)Cc1ccccc1	0	-1	-2
CNS(=O)(=O)c1cccc(C(=O)OCC(=O)c2cc(C)n(CC3CCCO3)c2C)c1 (configuration not stated)	-71	1	5
CCCOc1ccc(NC(=O)CC2C(=O)OCC3CCCCN32)cc1 (configuration not stated)	-4	3	1
O=C(COC(=O)/C=C/c1ccc(F)cc1)NCc1cccs1	-7	3	2
COc1ccc(-c2cc(C(=O)N3CCCC(C(F)(F)F)C3)c3ccccc3n2)cc1 (configuration not stated)	3	-2	-3
Cc1noc(C)c1CC(=O)Nc1ccc2c(c1)OCO2	-12	6	5
CCN1C(=O)[C@H]2[C@@H](c3ccc(OC)cc3)N[C@]3(CCCN(Cc4cccn4C)C3=O)[C@H]2C1=O	23	1	-3
Cc1cc(CNCCN(C)C)c(C)n1-c1cc(S(=O)(=O)N2CCOCC2)ccc1N1CCCC1	-3	2	0
CSCCC(NS(=O)(=O)c1ccc(C)cc1)C(=O)N(C)CC(=O)Nc1ccccc1Br (configuration not stated)	-9	-3	2
CCOC(=O)C1CCN(C(=O)c2ccc(NS(=O)(=O)c3ccc4[nH]c(=O)[nH]c4c3)cc2)CC1	4	5	6
COC(=O)CCCC(=O)OC	-11	1	-3
CC[C@H](C)[C@@H]1OC(=O)[C@@H](C)[C@@H](CC)NC(=O)[C@H](C)N(C)C(=O)C(C)(C)C(=O)C(C)NC(=O)[C@H](Cc2ccccc2)N(C)C(=O)[C@H](C(C)C)N(C)C(=O)CNC(=O)[C@H](CC(C)C)N(C)C(=O)CNC1=O (some centres not stated)	59	-15	-15
CN(C(=O)CN1CCN(c2cnn(-c3ccccc3)c(=O)c2Cl)CC1)C1CCS(=O)(=O)C1 (configuration not stated)	-5	0	-3
CN(CC(=O)Nc1c(Cl)cccc1Cl)C(=O)Cc1cccs1	-11	3	1
CC(C)(C)NC(=O)CSc1ccc(S(=O)(=O)N2CCOCC2)cn1	-8	-4	-1
Cc1ccccc1NC(=O)Nc1nc(CN(C)C)cs1	-15	2	-7
CN(C)c1c([N+](=O)[O-])cc(N2C(=O)C=CC2=O)cc1[N+](=O)[O-]	-17	4	5
Cc1nc2ccc(NC(=O)C3CCCCC3)cc2s1	-7	1	0
O=C(Nc1ccc2c(c1)OCO2)c1csc(COCCO)n1	-9	1	0
CC(C)[C@H](NC(=O)OCc1ccccc1)C(=O)OCC(=O)NCc1ccco1	16	6	-7
Cc1ccc(C(C)C)cc1-n1nnc(-c2cccc(Cc3ccc4ccccc4c3)c2)c1C(C)O (configuration not stated)	-10	-27	-9
O=[N+]([O-])c1ccccc1Oc1ccc(S(=O)(=O)N2CCOCC2)cc1	-15	-7	9
Cc1ccccc1CN(C)C[C@H]1OCc2cnnn2CCCC(=O)N([C@@H](C)CO)C[C@@H]1C	-17&1	3	0
COC(=O)c1cc(COC(=O)CNC(=O)c2cccc(C)c2)oc1C	-13	5	1
Cc1ccc(S(=O)(=O)N2CCCC2CNC(=O)C(=O)NCc2ccc3c(c2)OCO3)cc1 (configuration not stated)	-19	-7	-2
CCCNC(=S)NC1CC2CCCC(C1)N2Cc1ccccc1OC (configuration not stated)	-20	4	5
CN1CCCC1(C)C(=O)Nc1ccc(-n2cccc2)cc1 (configuration not stated)	-14	1	2
CC(OC(=O)Cc1n[nH]c(=O)c2ccccc12)C(=O)N(C)c1ccccc1 (configuration not stated)	-10	5	-1
CCC1(CC)CNC(=O)NC1	-17	3	1
COCCNC(=O)C1(C)CCCN(C(=O)c2ccc(OC)cc2OC)C1 (configuration not stated)	-12	12	9
O=C(COC(=O)c1n[nH]c(=O)c2ccccc12)Nc1cccc(S(=O)(=O)N2CCOCC2)c1	1	1	2
CCOc1ccc(NC(=O)COC(=O)CCC(=O)c2cccs2)cc1	-11	4	1

Reprinted at random: seven records from the list.
Molecule	UUG fidelity	MT1-MMP act inh RFP	MT1-MMP act inh
CCOc1ccc(NC(=O)COC(=O)CCC(=O)c2cccs2)cc1	-11	4	1
COCCNC(=O)C1(C)CCCN(C(=O)c2ccc(OC)cc2OC)C1 (configuration not stated)	-12	12	9
COC(=O)CCCC(=O)OC	-11	1	-3
Cc1ccc(C(C)C)cc1-n1nnc(-c2cccc(Cc3ccc4ccccc4c3)c2)c1C(C)O (configuration not stated)	-10	-27	-9
CCCOc1ccc(NC(=O)CC2C(=O)OCC3CCCCN32)cc1 (configuration not stated)	-4	3	1
COC(=O)c1cc(COC(=O)CNC(=O)c2cccc(C)c2)oc1C	-13	5	1
O=C(COC(=O)/C=C/c1ccc(F)cc1)NCc1cccs1	-7	3	2

A portion of the library, so the mix of outcomes need not match the whole.
